# CSC inhib: blocks cancer stem cells; cancer stem cell-like cells viability, luminescence; inhibition, % at 7.5 µM; 1.1% of 300,000 active; AID 2717;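 active = mean at 75% or more and at least half the replicates too; inconclusive = mean and replicates disagree; tested in HMLE shEcad cells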;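 also: 0% = median of negative and 100% = median of positive control wells; the first replicate is given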
# eIF4H inh: inhibitors of RNA binding by human eIF4H; Q15056; eIF4H fluorescence polarization binding assay; inhibition, % at 35 µM; 0.94% of 290,000 active; AID 2012;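 active = 50% or more with normal probe brightness, or confirmed in later tests; inconclusive = above 50% with abnormal brightness, or retests that disagree; inactive = below 50% or failed in later tests; about a fifth of its hits are not listed in these tables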;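 also: calls also rest on retests at 20 µM and on dose response follow-up; 0% = protein and probe with vehicle and 100% = probe without protein; strong numbers were not always called active; many hits fall short of the cut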
# MT1-MMP act inh: inhibitors of human MT1-MMP activation | P50281 | 0.061% of 360,000 active | GFP/RFP ratio change, % at 20 µM | HT1080 RFP-PRO-GFP cells, GFP/RFP ratio fluorescence, overnight; percent of plate control window, DMSO zero;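 active = GFP/RFP ratio change of at least 30% with cell ATP level not reduced by more than half and red fluorescence within 50% of control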; also: strong numbers were not always called active
#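 Assay system: RFP-PRO-GFP reporter HT1080 cells; read-out basis: GFP/RFP fluorescence ratio; benchmarks: DMSO wells and RFP-L50D-GFP cells; doses: 20 µM single dose, 1% DMSO; schedule: overnight cell settling, then overnight compound exposure, 37 °C, 5% CO2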
# Rce1 inhib: blocks yeast Ras-converting enzyme; Q03530; yeast membranes, quenched prenylated peptide cleavage fluorescence; calls only; 0.27% of 290,000 active; AID 2563;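 active = fall in fluorescence gain of 50% or more versus controls, with final raw signal at or below 3038400; inconclusive = same 50% fall but final raw signal above 3038400; inactive = fall in fluorescence gain under 50%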;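 also: plate controls were neutral control wells for no effect and wells lacking membranes for full effect; tested at 10 µM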
# HIV Env fusion: blocks HIV Env-driven cell-cell fusion; HeLa-JRFL Env/CEM21 cell fusion, luciferase; inhibition, % at 12.3 µM; 1.1% of 360,000 active; AID 651610;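 active = mean replicate inhibition score of at least 50 and every replicate individually at or above 50; inconclusive = only one of the two criteria met; inactive = mean below 50 and not all replicates reaching 50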;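 also: 0% = plate neutral controls and 100% = maraviroc near 300 nM; one replicate is shown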
# PABP polyA inh: PABP-poly(A) binding inhibition; 1% of 290,000 active; inhibition, % at 35 µM; PABP-poly(A) RNA binding, fluorescence polarization;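 active = 50% or more with normal probe brightness, or confirmed in later tests; inconclusive = above 50% with abnormal brightness, or retests that disagree; inactive = below 50% or failed in later tests; about a fifth of its hits are not listed in these tables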;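 also: calls also rest on retests at 20 µM and on dose response follow-up; controls were probe without protein and protein plus probe with vehicle; some compounds called inactive have numbers as strong as hits; many hits fall short of the cut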
# Target sequence (P11940 whole entry, looked up): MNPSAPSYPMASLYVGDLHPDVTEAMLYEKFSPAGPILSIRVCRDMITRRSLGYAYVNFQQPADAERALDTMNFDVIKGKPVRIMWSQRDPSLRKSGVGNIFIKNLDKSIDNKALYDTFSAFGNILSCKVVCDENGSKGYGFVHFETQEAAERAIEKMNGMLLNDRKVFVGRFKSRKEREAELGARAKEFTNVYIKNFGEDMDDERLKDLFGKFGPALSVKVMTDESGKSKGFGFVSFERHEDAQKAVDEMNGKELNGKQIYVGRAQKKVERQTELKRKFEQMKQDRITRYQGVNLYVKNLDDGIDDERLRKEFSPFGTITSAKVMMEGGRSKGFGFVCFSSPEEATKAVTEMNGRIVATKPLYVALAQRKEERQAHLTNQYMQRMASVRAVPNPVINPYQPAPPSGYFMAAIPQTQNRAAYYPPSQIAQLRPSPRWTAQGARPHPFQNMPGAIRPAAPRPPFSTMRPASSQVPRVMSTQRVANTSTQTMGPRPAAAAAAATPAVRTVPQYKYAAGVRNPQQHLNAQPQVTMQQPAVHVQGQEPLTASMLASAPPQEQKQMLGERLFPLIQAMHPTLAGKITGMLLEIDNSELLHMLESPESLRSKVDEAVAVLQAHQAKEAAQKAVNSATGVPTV
# UUG fidelity: modulators of start codon recognition fidelity in yeast; S. cerevisiae UUG-firefly luciferase reporter, luminescence/redox ratio; 0.13% of 350,000 active; activity score, % at 18.7 µM; AID 602363;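 active = replicate mean at a twofold rise or more, about +100% in these data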;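 also: firefly luciferase made from a UUG start codon reports start codon fidelity; reporter light over untreated wells divided by growth signal over untreated wells; some hits fall short of that in this replicate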
# MT1-MMP act inh RFP: also measured in MT1-MMP act inh; calls as there; RFP signal change, %; measured here: RFP expression control read;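 0 = vehicle wells; hits needed this value within 50% of zero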
# The depositor's hits bear a star; i = inactive; ? = inconclusive; / = no result given. This is a subset. The share of hits here may be higher or lower than overall.
SMILES,CSC inhib,eIF4H inh,MT1-MMP act inh,MT1-MMP act inh RFP,Rce1 inhib,HIV Env fusion,PABP polyA inh,UUG fidelity
OC[C@H]1O[C@@H](c2nc(-c3nc(-c4ccc(F)cc4)no3)cs2)[C@H](O)[C@@H](O)[C@H]1O,/,/,1,4,/,19,/,-3
C=CCOc1ccc(C(=O)/C=C2/C(=O)Nc3ccccc32)cc1,25,-3,-13,-10,i,-14,-4,-12
Cc1ccc(C(C(=O)Nc2ccc3c(c2)OCO3)N(C)C(=O)/C=C\c2ccc3c(c2)OCO3)cc1 (stereo not drawn),8,-3,-33,-27,i,-6,5,5
CN(C(=S)NC(=O)Cc1ccccc1)c1ccccc1,-1,3,-1,3,i,-10,8,/
Cc1ccc(S(=O)(=O)NCCSc2nnnn2-c2ccccc2)cc1,3,0,0,-3,i,/,7,-14
S=c1[nH]nc(-c2ccccc2)c2ccccc12,-4,-2,-4,1,i,25,-3,-17
CCc1nnc(SCC(=O)Nc2ccc3c(c2)OCO3)o1,-1,-6,-2,5,i,/,7,2
COc1cc2c(cc1OC)[C@@H](NC(=O)CCc1ccccc1)[C@H](O)C2,/,/,0,4,/,-2,/,0
Cc1ccnc(Nc2nc(-c3ccc(O)cc3)cs2)c1,17,1,6,-10,i,-11,4,-27
CCOC(=O)c1c(NC(C)=O)sc2c1CCN(Cc1ccccc1)C2,12,-7,-2,-1,i,1,0,-4
NC(Cc1ccc(C(F)(F)F)cc1)c1csc(NC(=O)Nc2ccccc2)n1 (stereo not drawn),/,/,10,3,/,78*,/,-8
c1csc(-c2nc(-c3ccncc3)no2)c1,-12,3,-3,-9,i,/,-5,-21
CCOc1cccc(=O)c2c(C)n(Cc3ccccc3)c(C)c12,-10,31,-2,1,/,3,21,/
CC1CCN(CC(=O)Nc2ccccc2Sc2ccccc2)CC1,117*,-9,0,0,i,16,-1,/
O=C(CSC(=S)N1CCCC1)N1CCN(S(=O)(=O)c2cccc([N+](=O)[O-])c2)CC1,-5,-4,1,-3,i,-8,6,-2
O=C(CN1CCN(CCO)CC1)Nc1ccccc1,5,-4,0,-1,i,/,-9,-6
COCCCNC(=O)Nc1ccc(Br)cc1Cl,-3,-6,-3,-3,i,2,0,2
CCOc1cc(N2CCOCC2)c(OCC)cc1NC(=O)COc1cccc2cccnc12,27,26,-16,-28,i,/,7,-17
COc1ccc(C2=NN(Cc3ccccc3)C3C(=O)NC(=O)C23)cc1 (stereo not drawn),-14,-1,4,6,i,16,-12,13
CCOC(=O)c1cccc2c1-c1ccccc1/C2=N/O,35,-12,-14,-13,i,?,-6,-11
O=C1CCCN1CC(O)CS(=O)(=O)Cc1ccc(Cl)c(Cl)c1 (stereo not drawn),-1,-5,-2,0,i,6,4,11
CC(=O)NC(Cc1c[nH]c2ccccc12)C(=O)NCc1ccc2c(c1)OCO2 (stereo not drawn),-7,-4,4,1,i,-15,-11,-1
Nc1ccc(C(=O)Nc2ccc(Nc3ccncc3)cc2)cc1,-10,-10,1,1,i,17,-8,9
CCc1nnc(NC(=O)c2c(OC)cccc2OC)s1,0,-3,3,2,i,-4,6,-14
O=C(Nc1ccc(F)cc1)/C(=C1/CCCCCN1)[N+](=O)[O-],-9,-7,-1,-3,i,-2,3,-12
Cc1nc(Nc2cccc(C(F)(F)F)c2)nc2c1C(=O)CC(C)C2 (stereo not drawn),-4,9,1,1,i,/,-3,-14
Cc1nn(-c2ccc(F)cc2)c(C)c1NS(=O)(=O)c1ccc2ccccc2c1,/,1,3,-7,i,/,-1,0
COc1cccc(/C=N/Nc2ccnc(=O)[nH]2)c1O,9,16,1,-1,i,65*,1,-56
Cc1ccc(C(=O)/C=C/Nc2ccccc2C(N)=O)cc1,-7,-5,-11,7,i,i,-4,-7
COc1ccc2o/c(=N/NC(=S)Nc3ccccc3)c(C(N)=O)cc2c1,/,0,/,/,i,/,-4,/
Cc1ccccc1-n1c(Cn2c(=O)sc3ccccc32)nnc1SCC(N)=O,5,-10,2,7,i,2,1,-6
CC1CCCCC1NCC#CCOc1ccc(Cl)cc1 (stereo not drawn),-11,2,-2,0,i,45,-12,-10
Cc1ccc(S(=O)(=O)N(C)c2ccc(C(=O)Nc3c(C)n(C)n(-c4ccccc4)c3=O)cc2)cc1,6,10,-1,-1,i,-10,2,-2
Cc1c(C(=O)Nc2cc(F)cc(F)c2)cnn1-c1ccccc1,-3,-9,1,-6,i,-108,-6,-10
O=C(O)C1CCCN1c1ncnc2ccccc12 (stereo not drawn),-2,-4,1,4,i,/,-3,-4
COc1ccccc1CNS(=O)(=O)c1c(C(=O)N2CCCCCC2)c(C)n(C)c1C,-12,-8,-6,0,i,31,4,10
CCCC(=O)Nc1sc2c(c1C(=O)OC)C(C(=O)OC)CC2 (stereo not drawn),21,-6,3,3,i,-146,-3,14
O=C(CSc1nnc(Cn2nnc(-c3ccccc3)n2)n1-c1ccccc1)Nc1ccc(F)cc1,-8,0,-1,-6,i,-28,9,15
Nc1ccc(N2CCN(c3ccc(F)cc3)CC2)cc1,7,4,-5,2,i,24,-7,/
Cc1cc[n+](C(C)C(=O)c2ccc(Cl)cc2)cc1 (stereo not drawn),4,1,/,/,i,6,-6,-16
CC(C)NC(=O)c1cc2cc(Br)ccc2oc1=O,-7,0,-10,-1,i,/,-1,-15
CC(C)C[C@H](NC(=O)N1CCn2c1nc1ccccc12)C(=O)NCc1ccc2c(c1)OCO2,-1,-12,3,-2,i,7,1,-4
C=CCC1c2cccc(C(=O)O)c2C(=O)N1c1ccc(Cl)cc1 (stereo not drawn),-19,-4,2,4,i,/,0,-3
O=S(=O)(c1cccc(Cl)c1)N1CN(CC2CCCO2)c2nc3ccccc3nc21 (stereo not drawn),-14,/,-3,2,i,17,/,7
O=C(c1ccc(C(F)(F)F)cc1)N1CCN(S(=O)(=O)c2ccc3c(c2)OCCCO3)CC1,10,14,3,-5,i,/,6,-6
COc1ccc(S(=O)(=O)N2CCC(C(=O)Oc3c(OC)cccc3OC)CC2)cc1OC,7,-12,-2,-5,i,-5,-2,14
O=C(COC(=O)c1c2c(nc3ccccc13)/C(=C\c1cccs1)CCC2)Nc1ccccc1,101*,34,-3,-9,i,/,0,/
CC(=O)c1ccc(NC(=O)C(C)Sc2nnnn2C)cc1 (stereo not drawn),/,-1,-3,-1,i,/,-1,-15
CC(C)OCCCNC(=O)C1CCN(S(=O)(=O)N2CCCCC2)CC1,-10,1,0,2,i,/,-6,-21
COc1ccc(CCN(C)C(=O)C2CCN(C(=O)Nc3ccccc3)CC2)cc1OC,14,/,8,1,i,-22,/,/
COc1ccc(-n2c(Cc3cccn3C)nnc2SCC(=O)Nc2ccccc2)cc1,-12,0,0,-1,i,0,-18,-13
CC(C)c1ccc(OCC(=O)Nc2c3c(nn2C(C)(C)C)CS(=O)(=O)C3)cc1,-1,/,1,-2,i,1,/,4
O=[N+]([O-])c1ccc(OCC2CC(c3ccccc3)=NO2)cc1 (stereo not drawn),-8,-6,3,1,i,4,-9,/
NC(=O)N/N=C/c1sc(=O)n(-c2ccccc2)c1Cl,-8,10,-20,0,i,1,-12,/
O=C(COC(=O)CC1CC2CCC1C2)Nc1ccc(F)cc1 (stereo not drawn),7,10,0,5,i,-4,8,/
CC(C)c1nc(SCC(=O)Nc2ccc([N+](=O)[O-])cc2Br)n[nH]1,-5,2,-5,-15,i,-5,-7,-11
O=C(NC(=S)NC1CCCCC1)c1ccccc1[N+](=O)[O-],21,-9,7,-1,i,-18,2,-9
N#CC1=C(N2CCCCC2)c2cc3c(n2C1=O)CCCC3,-12,-6,-9,-6,i,/,3,-9
CCOC(=O)c1oc2ccc(S(=O)(=O)n3nc(-c4ccccc4)cc3N)cc2c1C,10,-2,-5,-30,i,26,12,-13
CCOc1cc(N2CCOCC2)c(OCC)cc1NC(=O)c1ccc2ccccc2n1,16,7,0,-4,i,-4,-7,/

# Just eIF4H inh and MT1-MMP act inh, for some of the entries so far:
structure | eIF4H inh | MT1-MMP act inh
CCOC(=O)c1oc2ccc(S(=O)(=O)n3nc(-c4ccccc4)cc3N)cc2c1C | -2 | -5
CC(C)OCCCNC(=O)C1CCN(S(=O)(=O)N2CCCCC2)CC1 | 1 | 0

# Additional structures follow.
SMILES,CSC inhib,eIF4H inh,MT1-MMP act inh,MT1-MMP act inh RFP,Rce1 inhib,HIV Env fusion,PABP polyA inh,UUG fidelity
CC(C)(C)OC(=O)N1CCC(c2cc(-c3cccs3)n[nH]2)CC1,7,-4,-1,-7,i,-2,-4,-20
Cn1nc(C(=O)N2CCN(c3ccccc3F)CC2)c2c1-c1ccccc1S(=O)(=O)C2,-13,-2,3,-1,i,-5,0,/
CN1CCN(NC(=S)NC2CCCC2)CC1,-8,-7,3,7,i,-29,-11,/
CCCC(C)c1nnc(NC(=O)c2cc(C(=O)OC)cc([N+](=O)[O-])c2)s1 (stereo not drawn),-16,-7,4,-2,i,/,1,-14
Cc1ccc(CCNC(=O)CN(c2ccc(C)cc2)S(=O)(=O)c2c(C)noc2C)cc1,-6,-10,0,0,i,19,2,16
Cc1ccc(CN2C(=O)C(Cc3ccccc3)Nc3ncnc(N4CCOCC4)c32)cc1 (stereo not drawn),/,/,1,1,/,-16,/,-17
CC(C)C(NC(=O)c1ccccc1)C(=O)OCC(=O)N1CCCC1 (stereo not drawn),-16,/,-2,-1,/,/,/,7
COc1ccccc1C(=O)NNC(=O)c1ccccc1,-5,-6,2,5,i,12,10,-31
CN1CCN2c3ncccc3Cc3ccccc3C2C1 (stereo not drawn),1,/,-1,1,i,0,/,23
COc1ccc(Cc2nc3ccc(C(=O)N(C)Cc4nccn4C)cc3o2)cc1,/,/,1,-1,/,6,/,-15
CC(=O)c1cccc(NC(=O)C2(C)Cc3c(-c4cccc(C(N)=O)c4)ccnc3O2)c1 (stereo not drawn),/,/,-1,-5,/,5,/,-8
O=C(NC1CCCCC1)N1CCN(Cc2ccco2)CC1,-11,5,0,5,i,5,-4,/
Cc1ccc2c(c1)C1CN(C)CCC1N2C(=S)NC(=O)c1ccc(Cl)cc1Cl (stereo not drawn),-4,-9,7,0,i,-8,0,/
O=S(=O)(/N=C(\c1ccccc1F)N1CCCCC1)c1ccccc1,-3,-8,0,4,i,-50,5,3
C=C(C)COc1ccc(-c2ncncc2Oc2ccc(OC)cc2)c(O)c1,16,2,3,13,i,/,-7,-15
O=C(O)c1cc(N/N=C/c2ccc3c(c2)OCCO3)ccc1Cl,-12,4,-1,-2,/,/,-6,/
Cc1nc(SCC(=O)Nc2ccc3c(c2)OCCO3)c2oc3ccccc3c2n1,10,-1,2,1,i,-7,-1,/
COc1ccc(/C=C(/NC(=O)c2cccs2)C(=O)NCc2ccco2)cc1OC,-4,-1,1,-1,i,-4,-5,-6
COc1cc(/C=C(\C#N)c2ccccn2)cc(OC)c1O,26,-12,-116,7,i,-5,-12,/
CCC(=NCc1ccccc1)c1c(C(F)(F)F)[nH]n(-c2nc3ccccc3s2)c1=O,-14,-2,-8,6,i,-79,2,-23
CCc1ccc(OCc2nnc(SCCN3CCOCC3)n2C)cc1,-23,3,-2,-1,i,-135,40,0
COc1ccc(OC)c(-n2c(O)cnc2Nc2nc(C)cc(C)n2)c1,-11,0,4,7,i,/,2,-2
C=Cc1ccc(CN2CCCN(Cc3ccc(F)cc3)S2(=O)=O)cc1,9,10,-3,-3,i,3,-13,-11

# Source: PubChem BioAssay (several laboratories)
